Assay outcomes from PubChem.
Env fusion inh – blocks HIV Env-driven cell-cell fusion; inhibition, % at 12.3 µM; AID 651610; 360,000 tested, 1.1% active; HeLa-JRFL Env/CEM21 cell fusion, luciferase;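 active = mean replicate inhibition score of at least 50 and every replicate individually at or above 50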;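 note: 0% = plate neutral controls and 100% = maraviroc near 300 nM; one replicate is shown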
UUG fidelity – alters start codon recognition fidelity in yeast. 350,000 tested, 0.13% active. S. cerevisiae UUG-firefly luciferase reporter, luminescence/redox ratio. AID 602363. activity score, % at 18.7 µM;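 active = replicate mean at a twofold rise or more, about +100% in these data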;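 note: firefly luciferase made from a UUG start codon reports start codon fidelity; reporter light over untreated wells divided by growth signal over untreated wells; some hits fall short of that in this replicate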
CSC inhib – cancer stem cell inhibition | inhibition, % at 7.5 µM | cancer stem cell-like cells viability, luminescence | 300,000 tested, 1.1% active;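 active = mean at 75% or more and at least half the replicates too; tested in HMLE shEcad cells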;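 note: 0% = median of negative and 100% = median of positive control wells; the first replicate is given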
eIF4H inh – inhibitors of RNA binding by human eIF4H; 290,000 tested, 0.94% active; Q15056; inhibition, % at 35 µM; eIF4H fluorescence polarization binding assay;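 active = 50% or more with normal probe brightness, or confirmed in later tests; about a fifth of its hits are not listed in these tables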;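 note: calls also rest on retests at 20 µM and on dose response follow-up; 0% = protein and probe with vehicle and 100% = probe without protein; strong numbers were not always called active; many hits fall short of the cut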
MT1-MMP act inh – MT1-MMP (human) activation inhibition. HT1080 RFP-PRO-GFP cells, GFP/RFP ratio fluorescence, overnight; percent of plate control window, DMSO zero. P50281. 360,000 tested, 0.061% active. GFP/RFP ratio change, % at 20 µM;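 active = GFP/RFP ratio change of at least 30% with cell ATP level not reduced by more than half and red fluorescence within 50% of control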; note: strong numbers were not always called active
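Compound: 20 µM single dose, 1% DMSO / System: HT1080 RFP-PRO-GFP cells / Controls: DMSO and RFP-L50D-GFP cell wells / Read-out basis: GFP/RFP fluorescence ratio / Schedule: overnight compound exposure at 37 °C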
Rce1 inh – yeast Ras-converting enzyme inhibition. Q03530. yeast membranes, quenched prenylated peptide cleavage fluorescence. calls only. 290,000 tested, 0.27% active;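 active = fall in fluorescence gain of 50% or more versus controls, with final raw signal at or below 3038400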;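 note: plate controls were neutral control wells for no effect and wells lacking membranes for full effect; tested at 10 µM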
PABP FP inh – PABP-poly(A) binding inhibition; PABP-poly(A) RNA binding, fluorescence polarization; 290,000 tested, 1% active; P11940; AID 2014; inhibition, % at 35 µM;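 active = 50% or more with normal probe brightness, or confirmed in later tests; about a fifth of its hits are not listed in these tables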;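 note: calls also rest on retests at 20 µM and on dose response follow-up; controls were probe without protein and protein plus probe with vehicle; some compounds called inactive have numbers as strong as hits; many hits fall short of the cut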
Target sequence (P11940 whole entry, looked up): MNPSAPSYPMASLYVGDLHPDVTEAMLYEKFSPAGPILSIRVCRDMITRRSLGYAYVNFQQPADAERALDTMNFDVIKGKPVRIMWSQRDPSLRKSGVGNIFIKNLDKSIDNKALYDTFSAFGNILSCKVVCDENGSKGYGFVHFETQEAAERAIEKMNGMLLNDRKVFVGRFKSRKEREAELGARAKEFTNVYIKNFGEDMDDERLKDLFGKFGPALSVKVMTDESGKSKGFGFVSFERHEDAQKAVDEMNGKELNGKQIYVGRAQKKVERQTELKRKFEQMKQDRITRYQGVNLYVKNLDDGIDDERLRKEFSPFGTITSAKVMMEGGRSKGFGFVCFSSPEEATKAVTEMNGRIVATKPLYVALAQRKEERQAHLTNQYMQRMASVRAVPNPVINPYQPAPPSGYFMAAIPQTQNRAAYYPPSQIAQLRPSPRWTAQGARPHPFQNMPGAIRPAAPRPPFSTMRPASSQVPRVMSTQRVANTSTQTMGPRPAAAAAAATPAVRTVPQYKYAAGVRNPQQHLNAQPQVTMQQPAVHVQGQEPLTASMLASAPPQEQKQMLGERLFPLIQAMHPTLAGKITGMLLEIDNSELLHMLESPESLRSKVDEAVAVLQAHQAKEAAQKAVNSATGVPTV
eIF4H inh retest – also measured in eIF4H inh; calls as there; inhibition, %; compound at 20 µM; confirmation average;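 mean of two retest wells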
PABP FP inh retest – further read-out of PABP FP inh, marked with its call; inhibition, %; compound at 20 µM; confirmation repeats;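 mean of two retest wells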
MT1-MMP act inh RFP – further read-out of MT1-MMP act inh, marked with its call; RFP signal change, %; measured here: RFP expression control read;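 0 = vehicle wells; hits needed this value within 50% of zero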
The depositor's hits bear a star; i = inactive; . = not tested or not shown.

SMILES	Env fusion inh	UUG fidelity	CSC inhib	eIF4H inh	MT1-MMP act inh	MT1-MMP act inh RFP	Rce1 inh	PABP FP inh	others
COc1cccc(NC(=O)CN(C)C(=O)c2cc(-c3cccc(Br)c3)nc3ccccc23)c1	5	-7	36	.	3	-5	i	.
c1ccc(-c2nc(N3CCOCC3)sc2-c2ccccc2)cc1	-1	.	-4	3	-3	-2	i	5
CCC1Oc2ccc(C)cc2N(CC(=O)NC2CCCCC2)C1=O (configuration not stated)	18	-23	-6	-3	1	2	i	-1
CCc1nnc(NC(=O)c2ccc(-c3ccc(Cl)cc3)o2)s1	.	.	-1	-16	3	7	i	4
O=C(O)C1CCCCC1C(=O)NCCc1ccncc1 (configuration not stated)	.	1	-4	1	1	8	i	-17
N#C/C(=C\c1cn(CCOc2ccccc2)c2ccccc12)C(=O)NCc1ccco1	-131	.	1	-11	3	-1	i	-8
O=[N+]([O-])c1nn(-c2ccccc2)[n+]([O-])c1N1CCN(c2ccccc2F)CC1	3	.	-7	-9	10	0	i	-4
Cc1ccc(OCC(O)CN2CCCC2)cc1 (configuration not stated)	-1	-2	-13	4	1	0	i	-15
COC(=O)C(O)(CC(=O)Nc1cc(OC)c(OC)c(OC)c1)C(F)(F)F (configuration not stated)	.	-13	-21	-5	-2	5	i	28
Cc1nc2sc(C(c3ccco3)N3CCOCC3)c(O)n2n1 (configuration not stated)	10	-13	13	77	-7	2	i	12	eIF4H inh retest=-17;PABP FP inh retest=7
O=C(COC(=O)c1cccc(F)c1)NC(=O)NCc1ccccc1	.	-6	-3	.	-3	-2	.	.
CCc1ccc(C(O)(c2ccccc2OC)C(CN2CCOCC2)c2ccccc2)cc1 (configuration not stated)	24	.	6	-1	-2	0	i	-4
Cc1ccc(-c2cc3onc(-c4ccccc4)c3c(=O)n2C)cc1	-50	-48	20	.	-3	-21	.	.
O=C(O)c1ccccc1C(=O)Nc1ccccc1[N+](=O)[O-]	-20	-11	-1	-11	1	2	i	1
CCOc1ccc(/C=N/NC(=O)C(=O)NCc2ccco2)cc1	.	.	8	5	-7	-3	i	0
CC1=C(C(=O)N(C(C)C)C(C)C)CC(CC(=O)NCc2cccc3ccccc23)C(=O)N1Cc1ccc(C(C)(C)C)cc1 (configuration not stated)	-23	-15	.	.	-19	-20	.	.
C=CCNc1cccc(Br)c1	-13	6	-1	.	3	0	i	.
CCN(CC)S(=O)(=O)c1ccc(OC)c(NC(=O)c2ccc([N+](=O)[O-])cc2)c1	21	.	-8	1	-1	-1	i	3
COc1ccc(C(=O)Nc2ccc(S(=O)(=O)Nc3ncccn3)cc2)cc1OC	-6	.	-14	9	-11	5	i	-3
CCCCNC(=O)N1CCN(C(=O)C2CCCO2)CC1 (configuration not stated)	-19	-22	-2	3	.	.	i	-2
COc1ccc(CC(=O)Nc2nc(C)cs2)cc1OC	-132	-6	4	4	0	-10	.	1
CCOC(=O)c1ccc(Nc2sc(C(=O)c3cccc([N+](=O)[O-])c3)c(N)c2C#N)cc1	-106	-20	60	-18	-2	-14	i	-1
Cc1cc(C)c(NC(=O)C2=CCN(S(=O)(=O)c3ccc(F)cc3)CC2)c(C)c1	-2	-8	-4	-6	-6	-2	i	-4
Cc1nc(SC2CC(=O)N(c3cc(Cl)cc(Cl)c3)C2=O)nc2c1CCCC2 (configuration not stated)	-36	-18	0	19	-2	-4	i	-15
NC1=NC[C@H](Cc2ccccc2)N1CCc1cc(C(F)(F)F)cc(C(F)(F)F)c1	-84	-8	3	-4	-2	1	i	-9
Next section
SMILES	Env fusion inh	UUG fidelity	CSC inhib	eIF4H inh	MT1-MMP act inh	MT1-MMP act inh RFP	Rce1 inh	PABP FP inh	others
CCCCc1nccn1CCn1ccnc1CCCC	-24	-17	-6	-6	2	-1	i	10
CCC[C@@H]1C=C(C(=O)OCC)[C@H](c2ccccc2)N1S(=O)(=O)c1ccc(C)cc1	5	-10	.	.	-11	-14	.	.
CSCCC(NC(=O)c1ccco1)C(=O)O (configuration not stated)	.	3	0	2	9	4	i	10
CC(C)N(C(=O)COC(=O)CNC(=O)c1ccc(Br)cc1)c1ccccc1	6	4	10	-2	1	3	i	5
Cn1c(C(=O)Nc2ccc3c(c2)OCCO3)cc2c(=O)n(C)c3ccccc3c21	-25	-4	16	-7	5	4	i	2
COCCCn1c(C(=O)N2CCOCC2)cc2c(=O)n3cccc(C)c3nc21	4	-9	-8	-4	0	-1	i	0
CC(C)C[C@H]1CNC(=S)N1C[C@H]1CCCN1C[C@H](Cc1ccc(O)cc1)N1C[C@H](Cc2ccccc2)N(CCc2ccccc2)C1=S	-4	-18	.	.	-6	-11	.	.
Cc1ccc(NC(=O)CN2CCCCCC2)c(Br)c1	-26	.	.	1	3	1	i	0

In the list so far, these have sulfur.
SMILES	Env fusion inh	UUG fidelity	CSC inhib	eIF4H inh	MT1-MMP act inh	MT1-MMP act inh RFP	Rce1 inh	PABP FP inh	others
c1ccc(-c2nc(N3CCOCC3)sc2-c2ccccc2)cc1	-1	.	-4	3	-3	-2	i	5
CCc1nnc(NC(=O)c2ccc(-c3ccc(Cl)cc3)o2)s1	.	.	-1	-16	3	7	i	4
Cc1nc2sc(C(c3ccco3)N3CCOCC3)c(O)n2n1 (configuration not stated)	10	-13	13	77	-7	2	i	12	eIF4H inh retest=-17;PABP FP inh retest=7
CCN(CC)S(=O)(=O)c1ccc(OC)c(NC(=O)c2ccc([N+](=O)[O-])cc2)c1	21	.	-8	1	-1	-1	i	3
COc1ccc(C(=O)Nc2ccc(S(=O)(=O)Nc3ncccn3)cc2)cc1OC	-6	.	-14	9	-11	5	i	-3
COc1ccc(CC(=O)Nc2nc(C)cs2)cc1OC	-132	-6	4	4	0	-10	.	1
CCOC(=O)c1ccc(Nc2sc(C(=O)c3cccc([N+](=O)[O-])c3)c(N)c2C#N)cc1	-106	-20	60	-18	-2	-14	i	-1
Cc1cc(C)c(NC(=O)C2=CCN(S(=O)(=O)c3ccc(F)cc3)CC2)c(C)c1	-2	-8	-4	-6	-6	-2	i	-4
Cc1nc(SC2CC(=O)N(c3cc(Cl)cc(Cl)c3)C2=O)nc2c1CCCC2 (configuration not stated)	-36	-18	0	19	-2	-4	i	-15
CCC[C@@H]1C=C(C(=O)OCC)[C@H](c2ccccc2)N1S(=O)(=O)c1ccc(C)cc1	5	-10	.	.	-11	-14	.	.
CSCCC(NC(=O)c1ccco1)C(=O)O (configuration not stated)	.	3	0	2	9	4	i	10
CC(C)C[C@H]1CNC(=S)N1C[C@H]1CCCN1C[C@H](Cc1ccc(O)cc1)N1C[C@H](Cc2ccccc2)N(CCc2ccccc2)C1=S	-4	-18	.	.	-6	-11	.	.
